Cruzain inh Det: blocks cruzain activity in presence of Triton detergent. P25779. purified cruzain, Z-FR-AMC fluorescence, 0.01% Triton. Potency, µM, for the others: max response, negative = inhibition, hits mostly inhibitors. 0.43% of 200,000 active. AID 1478; active = well fitted curve in the direction sought with a large enough effect; inconclusive = small, poorly fitted or top-dose-only effect, or another doubt; inactive = no such curve, though single readings can be large; an effect the other way counts as inactive or inconclusive;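 note: plate controls were neutral wells for no effect and buffer without enzyme for full effect; nearly all actives have a fitted effect of over 40% in size; top concentration of the series not given in the record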
Target sequence (P25779 123-467 limits assumed): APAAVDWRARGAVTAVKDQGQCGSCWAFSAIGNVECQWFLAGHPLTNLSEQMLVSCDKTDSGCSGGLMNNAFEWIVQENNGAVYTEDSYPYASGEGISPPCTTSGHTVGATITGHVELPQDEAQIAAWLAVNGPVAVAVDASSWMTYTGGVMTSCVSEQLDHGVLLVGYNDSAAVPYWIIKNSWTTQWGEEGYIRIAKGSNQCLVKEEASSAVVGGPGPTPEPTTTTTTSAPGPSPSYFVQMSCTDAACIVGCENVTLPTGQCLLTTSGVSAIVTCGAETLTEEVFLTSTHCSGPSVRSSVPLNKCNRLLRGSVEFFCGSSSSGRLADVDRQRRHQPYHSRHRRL
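Enzyme 1.5 nM, Z-FR-AMC 2 uM, NaOAc 100 mM pH 5.5, DTT 5 mM, Triton X-100 0.01%; 15 min RT compound preincubation; kinetic ex360/em450, 60 s delta.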
SARS PLpro yeast: inhibitors of SARS-CoV papain-like protease in yeast; Potency, µM (series often up to 32.9 µM), for the others: at the top dose activity, positive = growth rescue; S. cerevisiae expressing SARS-CoV PLpro, growth rescue; control for the full effect not named in the record; 0.19% of 330,000 active; note: 0% is about no effect; nearly all actives have a fitted effect of over 55% in size; growth read by luminescence after 48 h
Cruzain inh noDet: inhibitors of Trypanosoma cruzi cruzain without detergent | P25779 | purified cruzain, Z-FR-AMC fluorescence, no detergent | Potency, µM, without a hit: max response, negative = inhibition, usual class: inhibitors | 2.3% of 200,000 active; active = well fitted curve in the direction sought with a large enough effect; inconclusive = small, poorly fitted or top-dose-only effect, or another doubt; inactive = no such curve, though single readings can be large; an effect the other way counts as inactive or inconclusive;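 note: plate controls were enzyme without inhibitor for no effect and buffer without enzyme for full effect; nearly all actives have a fitted effect of over 40% in size; top concentration of the series not given in the record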
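Detergent-free condition (0.00005% Triton X-100) in acetate buffer pH 5.5 with DTT. 1.5 nM enzyme and compound were pre-mixed 15 min, then 2 uM Z-FR-AMC substrate added; reaction progress from fluorescence change between first and third reads (60 s).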
Marburg entry inh: inhibitors of Marburg virus binding or cell entry; Marburg virus pseudotyped entry inhibition, cell reporter; control for the full effect not named in the record; about a third of the inactives were read at about 46 µM; Potency, µM (highest dose often 37.8 µM), inactives show at the highest dose activity change, negative = inhibition, hits mostly inhibitors; 1.8% of 300,000 active; AID 540276; active = well fitted inhibition curve with a large enough effect; inconclusive = small, poorly fitted or top-dose-only effect, or effect the other way; inactive = flat fitted curve, though single readings scatter; tested in HEK293 cells; about a fifth of its hits are not listed in these tables; note: % is set by controls: 0 for no effect and ±100 for the full control effect; luciferase read-out
StopGo reporter: FMDV 2A StopGo reporter, luciferase signal. human cells with a luciferase reporter of 2A StopGo recoding; control for the full effect not named in the record. Potency, µM (titrated, usually from 57.9 µM), without a hit: at the top dose signal change, negative = less light. 1.2% of 410,000 active. AID 1159524; active = well fitted falling curve with a large enough effect; inconclusive = small, poorly fitted or top-dose-only effect; inactive = no such curve, though single readings can be large or run the other way; tested in HEK293T cells; note: % is set by controls: 0 for no effect and ±100 for the full control effect; nearly all actives have a fitted effect of over 45% in size; luciferase light after 4 h
Lassa entry inh: Lassa virus entry inhibition | Lassa virus pseudotype entry inhibition, cell reporter; control for the full effect not named in the record | Potency, µM (titrated, usually from 37.9 µM), for inactives: at the highest dose activity change, negative = inhibition, hits mostly inhibitors | 1.2% of 300,000 active | AID 540256; active means well fitted inhibition curve with a large enough effect; inconclusive means small, poorly fitted or top-dose-only effect, or effect the other way; inactive means flat fitted curve, though single readings scatter; tested in HEK293 cells; note: % is set by controls: 0 for no effect and ±100 for the full control effect; nearly all actives have a fitted effect of over 50% in size; luciferase read-out
NS1 function inh: influenza NS1 inhibition; S. cerevisiae slowed by influenza A NS1, growth recovery by OD600; Potency, µM (top dose mostly 46.1 µM), without a hit: at the top dose activity, positive = more growth; 0.4% of 270,000 active; AID 2326; note: actives are rising curves; nearly all actives have a fitted effect of over 50% in size
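OD600 was taken as the measure of yeast growth restored by compound in an NS1-expressing S. cerevisiae strain. Cells had been washed out of glucose medium and diluted 1:100 into galactose -URA medium, pH 6.0.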
RE007 growth inh: less growth of the S. pombe RE007 Vpr strain; S. pombe RE007 Vpr strain, BacTiter-Glo ATP luminescence, 24 h; control for the full effect not named in the record; Potency, µM (highest dose often 92.2 µM), without a hit: top-dose activity change, negative = less growth; 0.21% of 360,000 active; AID 651644; active = well fitted falling curve with a large enough effect; inconclusive = small, poorly fitted or top-dose-only effect; inactive = no such curve, though single readings can be large or run the other way;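 note: % is set by controls: 0 for no effect and ±100 for the full control effect; nearly all actives have a fitted effect of over 50% in size; the assay follows cell death caused by Vpr and the record does not say whether a fall means rescue or toxicity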
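Fission yeast RE007 carrying one integrated HIV-1 vpr copy, seeded at OD 0.01 in PMG+AL medium with 23 nL pinned compound. Grown 24 h at 30 degrees; viability read by BacTiter-Glo luminescence after 5 min.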
Active calls of the source: *; ? = inconclusive; nt = not tested or not shown; [ ] = another dose, or the depositor's remark. Unless noted, calls come from the whole dose curve; as a rule, active means well fitted rising curve with a large enough effect; inconclusive means small, poorly fitted or top-dose-only effect; inactive means no such curve, though single readings can be large or run the other way. Potency is the fitted concentration of half-maximal effect.

SMILES	Cruzain inh Det	SARS PLpro yeast	Cruzain inh noDet	Marburg entry inh	StopGo reporter	Lassa entry inh	NS1 function inh	RE007 growth inh
CCN(Cc1ccccc1)C(=O)C1CCN(S(=O)(=O)c2ccc3c(c2)OCCO3)CC1	nt	-4%	nt	7%[46.1 µM]	-14%	18%[46.1 µM]	7%	-16%
Cc1ccc(S(=O)(=O)N(C)C)cc1NC(=O)C1CCN(C(=O)Nc2ccccc2)CC1	nt	1%	nt	21%[46.1 µM]	-18%	21%	nt	12%
CN(C)c1ccc(CN2CCCCC2)cc1	2.4%	2%	3%	?	-24%	-18%	-3%	-1%
CCOc1ccc(NC(=O)C2CCN(S(=O)(=O)c3ccc4c(c3)oc(=O)n4C)CC2)cc1	-0.5%	nt	?	10%[46.1 µM]	-1%	22%[46.1 µM]	nt	nt
CC(C)NC(=O)NC(=O)COC(=O)c1ccc(OC(F)(F)F)cc1	-4.9%	3%	23%	-6%	-18%	-3%	8%	-7%
Cc1cn2c(=O)cc(COc3ccccc3NC(=O)c3ccccc3C)nc2s1	0.1%	nt	-9%	26%[46.1 µM]	-27%	14%[46.1 µM]	nt	nt
CCCCNC(=O)COCc1cc(-c2ccc3c(c2)OCO3)on1	nt	1%	nt	-9%[46.1 µM]	13%	16%	-2%	7%
O=c1[nH]n(-c2cccc3cccnc23)c(=O)c2ccccc12	-3.3%	1%	-5%	9%	24%	1%	0%	-28%
Cc1ccc(CO/N=C\Cc2snc(Sc3ncc(C(F)(F)F)cc3Cl)c2C#N)cc1	-7.6%	-2%	4µM*	-25%	0%	-19%	20%	-3%
COC(=O)c1ccc(C(=O)N2CCCC(N3CCN(c4ccc(F)cc4)CC3)C2)nc1 (stereo not drawn)	nt	27%	nt	1%[46.1 µM]	0%	-20%[46.1 µM]	8%	10%
CCN(CCn1cccn1)Cc1nc(Cc2cccc(F)c2)no1	nt	1%	nt	5%[46.1 µM]	-1%	7%[46.1 µM]	-4%	13%
Cc1ccccc1C(=O)Nc1ccccc1C(=O)NC1CC1	nt	0%	nt	1%[46.1 µM]	-4%	1%[46.1 µM]	-2%	-2%
COC(=O)CNC(c1ccccc1Cl)c1cc(Br)ccc1NC(=O)CCN1CCOCC1 (stereo not drawn)	3.6%	-35%	0%	?	-17%	-16%	-11%	49%
Cc1cc(N2CC(C(=O)Nc3nccs3)CC2=O)ccc1C(C)C (stereo not drawn)	nt	4%	nt	nt	9%	nt	-3%	10%
Cc1ccc(CNc2nc(N)c([N+](=O)[O-])c(NCCO)n2)cc1	nt	0%	nt	nt	6%	nt	-1%	12%
O=C1C2C(C(=O)N1/N=C/c1cc([N+](=O)[O-])ccc1O)C1C=CC2C12CC2 (stereo not drawn)	-7.6%	-27%	-2%	0%	nt	-11%	-96%	?
CC(C)C(O)(C(=O)NNc1ccccc1)C(C)C	nt	-2%	nt	15%	5%	-1%	-5%	21%
Cc1cc(C)c2cc(CN(CC3CCCO3)C(=S)NCc3ccco3)c(=O)[nH]c2c1 (stereo not drawn)	nt	1%	nt	-10%[46.1 µM]	20%	-17%	6%	-8%
CCc1ccccc1NC(=O)c1ccc2c(SCC(=O)O)c3c(nc2c1)CCC3	1.0%	nt	-11%	18%[46.1 µM]	26%	-1%[46.1 µM]	nt	nt
CC1(C)Cc2c(C#N)c(OCC(=O)c3ccccc3)nc(-c3ccoc3)c2CO1	-9.8%	-3%	?	-14%	-18%	-4%	15%	-10%
CC(=O)Nc1ccc(/C=N/NC(=O)CNC(=O)c2ccccc2)cc1	nt	1%	nt	2%	-15%	?	7%	28%
O=C(CSc1nc2[nH]ncc2c(=O)[nH]1)NCc1ccccc1Cl	-0.4%	-3%	-7%	4%	-12%	4%	2%	-4%
CC1(C)CC(=O)C(C=Nc2ccc(Cl)cn2)=C(O)C1	3.0%	1%	-1%	?	-2%	21%	-12%	-4%
COc1ccc(-c2[nH]ncc2CN(CCO)Cc2cccs2)c(F)c1	nt	-5%	nt	?	-17%	?	3%	-14%
COCCn1cnc2c1c(=O)n(CC(=O)OCC(=O)NCCCc1ccccc1)c(=O)n2Cc1ccccc1	0.8%	-18%	?	13%	-8%	7%	-10%	-6%
Cc1nc2c(C(=O)NCc3ccc(F)cc3)c[nH]n2c(=O)c1Cl	-3.8%	3%	8%	-7%	19%	30%[14.3 µM]	-5%	-13%
COc1ccccc1N(CC(=O)NCc1ccccc1)C(=O)CCC(=O)Nc1ccccn1	-1.2%	-8%	8%	-27%[46.1 µM]	8%	?	-6%	-7%
CCOC(=O)Cc1csc(N/C(=N/S(=O)(=O)c2ccc(Cl)cc2)c2ccccc2)n1	-7.5%	26%	-3%	18%	-8%	9%	18%	-3%
COc1ccc(CC(=O)OCC(=O)Nc2ccc(Br)cc2)cc1	nt	2%	nt	nt	-7%	nt	1%	-11%
O=C(c1ccc2c(c1)OCO2)C1CCCN(Cc2cn[nH]c2-c2ccccc2)C1 (stereo not drawn)	nt	-1%	nt	nt	-23%	nt	-1%	-8%
O=C(CN1C(=O)c2ccccc2C1=O)Nc1ccc(S(=O)(=O)NCC2CCCO2)cc1 (stereo not drawn)	1.0%	6%	-13%	13%	nt	-3%	-8%	3%
Clc1ccc(-c2noc(CCCOc3ccccc3)n2)cc1	0.3%	1%	-6%	1%	9%	-6%	-5%	-9%
C=CCNC(=O)CC(=O)N/N=C/c1ccc(F)cc1	-0.1%	-7%	1%	-10%	6%	?	-2%	-9%
CC(NS(=O)(=O)c1ccc(F)cc1)C(=O)NCc1ccncc1 (stereo not drawn)	0.2%	-2%	2%	15%[46.1 µM]	5%	-17%	-1%	12%
COc1ccc(C(=O)Nc2nc3ccc4nc(C)sc4c3s2)cc1	-5.7%	-2%	-7%	nt	-2%	nt	3%	6%
CN1C(=S)SC2CS(=O)(=O)CC21C (stereo not drawn)	nt	-1%	nt	-1%[46.1 µM]	-12%	-9%[46.1 µM]	0%	-1%
CCOc1cc(/C=C2\SC(=O)N=C2N)ccc1O	-2.1%	-13%	-6%	?	-12%	?	9%	nt
Cc1cc(NS(=O)(=O)c2ccc(NC(=O)CCCOc3ccccc3)cc2)no1	0.3%	-5%	4%	18%	11%	4%	-9%	3%
Cc1ccc(CN2CCN(c3ccccc3Cl)CC2)o1	nt	nt	nt	?	-14%	5%	nt	-6%
NC(=O)C1CCN(C(=O)c2ccc(NS(=O)(=O)c3ccc(Br)s3)cc2)CC1	nt	1%	nt	6%	-11%	-2%	nt	7%
CCOC(=O)c1ccc(NC(=O)N2CCN(S(C)(=O)=O)CC2)cc1	18%	0%	4%	6%	24%	-28%[14.3 µM]	-4%	-2%
COc1ccc(C(=O)Nc2cc(-c3ccccc3)nn2-c2ccccc2)cc1	-0.6%	nt	-8%	nt	10%	-7%[46.1 µM]	nt	nt
CCOc1ccc(-c2cn3c(n2)sc2cc(C(=O)NCCCN(CC)CC)ccc23)cc1	-1.5%	nt	-18%	nt	7%	?	nt	nt
COc1ccccc1NC(=O)c1ccc2snnc2c1	nt	-1%	nt	?	18%	14%[46.1 µM]	-6%	-16%
COc1ccc(NC(=O)CN2C(=O)CSC2=O)cc1	nt	1%	nt	16%[46.1 µM]	39%[activator]	3%	4%	-11%
CCCOc1ccc(C2CC(=O)Nc3cc(OC)c(OC)cc32)cc1 (stereo not drawn)	nt	-5%	nt	nt	?	nt	7%	4%
CCN(CC)C(=O)CSc1nnc(-c2ccc(S(=O)(=O)NCc3ccccc3Cl)cc2)o1	-2.7%	0%	12%	8%	26%	-21%	0%	10%
Cc1cccc(-c2noc(CCC(=O)Nc3ccccc3)n2)c1	-0.3%	?	-7%	-3%	nt	-16%	-46%	9%
O=C(Nc1nc2c(s1)CCCC2)c1ccccc1F	-9.3%	nt	-4%	?	?	-20%[46.1 µM]	nt	nt
CC(C)CC(CO)N1CCN(C(=O)c2ccc(Cl)cc2Cl)CCC1=O (stereo not drawn)	0.1%	7%	4%	4%	-6%	2%	-13%	1%

(more compounds)
SMILES	Cruzain inh Det	SARS PLpro yeast	Cruzain inh noDet	Marburg entry inh	StopGo reporter	Lassa entry inh	NS1 function inh	RE007 growth inh
CC1=NOC(=O)/C1=C/c1ccc(N(C)C)cc1	-7.6%	-15%	9%	5%	-7%	-5%	-59%	-16%
O=C(c1cccc(S(=O)(=O)N2CCCCCC2)c1)N1CCN(c2ccccc2)CC1	nt	-1%	nt	nt	-6%	nt	-6%	10%
Cc1cccc(N(CC(=O)N/N=C/c2ccc(OCC(=O)NCc3ccco3)cc2)S(C)(=O)=O)c1C	-3.2%	-1%	3%	-17%	?	-8%	-53%	-10%
COc1ccc(/C=C2\N=C(c3ccc(C)cc3)OC2=O)cc1	nt	-2%	nt	11%	-16%	18%	14%	-12%
Cc1nc(-c2cnn(-c3ccccc3)c2)c2cc(C)oc2n1	-7.8%	-14%	?	?	-24%	-2%	-88%	-1%
CCOc1ccccc1CNC(=O)c1oc2c(c1C)-c1[nH]ncc1CC2	-0.3%	nt	6%	?	3%	?	nt	nt
Clc1ccc(OCc2nc(-c3ccncc3)no2)c(Cl)c1	-1.6%	-22%	8%	?	-17%	?	-63%	?
COC(=O)c1sccc1S(=O)(=O)N1CCCC(N(C)CCc2ccccn2)C1 (stereo not drawn)	nt	-2%	nt	5%	-1%	-13%	2%	-12%

High-throughput results from PubChem.
